H5N1 antiviral: MDCK cell protection from H5N1 avian flu. cytopathic effect, luminescence, 72 h; active compounds read high; no value below 0 was filed and about half of the inactive calls have no number; reference of the scale not given here. inhibition, % at 50 µM. 96,000 tested, 0.07% active; in the data active = inhibition above about 25%
Active calls of the source: *; i = inactive. Only part of the results is shown, so the mix of outcomes need not match the whole.

SMILES	H5N1 antiviral
Cc1c(C(=O)Nc2cccc(Cl)c2)oc2ccc(S(=O)(=O)N3CCC4(CC3)OCCO4)cc12	i
O=C(Nc1nc(-c2ccc3c(c2)OCO3)cs1)C1CC1	i
O=C(c1ccc2snnc2c1)N1CCOCC1	i
COc1ccc(NC(=O)CSC2CC(=O)N(c3ccc4c(c3)OCCO4)C2=O)cc1 (stereo unspecified)	i
N#CC1=C(N)N(c2ccccc2)C2=C(C(=O)CCC2)C1c1ccccc1 (stereo unspecified)	i
COc1cccc(-n2cnc3cccc(N)c32)c1	0.3
O=C(CN1CCOCC1)Nc1nc2ccc(Br)cc2s1	i
O=C(NCc1ccc(F)cc1)c1noc2c1CCCCC2	1.6
O=C(CSc1nnnn1-c1cccc2ccccc12)Nc1ccc(N2CCOCC2)c(Cl)c1	i
COc1ccc(CC(=O)N2N=C(C)CC2(O)c2cccnc2)cc1 (stereo unspecified)	0.5
CCn1c(=O)c(C(=O)Nc2ccccc2S(N)(=O)=O)c(O)c2ccccc21	i
CCN(CC)S(=O)(=O)c1ccc(C(=O)Nc2cccc(C)c2)cc1	1.2
CCc1ccccc1NC(=O)Cn1nc(C(F)(F)F)cc1C1CC1	i
Cc1nonc1OCCn1nnnc1N	0.3
O=C(COc1ccccc1)Nc1cc(C(F)(F)F)ccc1N1CCCC1	0.1
CCc1ccccc1NC(=O)CSc1nnc(-c2ccco2)n1N	i
CCc1ccc(N2CCN(C(=O)c3ccc(OC)c(OC)c3)CC2)cc1	i
CN(C(=O)c1ccncc1)c1nnc(-c2ccccn2)s1	0.9
CCOC(=O)c1c(NC(=O)CN2CCN(c3ccc(Cl)cc3)CC2)sc(C)c1C	0.1
Cc1cc(C)c(NC2=NCC(=O)N2C2CCCCC2)c(C)c1	0.5
O=S(=O)(Nc1ncn[nH]1)c1ccc2ccccc2c1	i
CCOC(=O)Cn1c(=NC(=O)CSC(C)=O)sc2cc(OC)ccc21	0.7
CN1CCc2c(c3c(n2C)CCN(C)C3c2ccc(F)cc2)C1c1ccc(F)cc1 (stereo unspecified)	1.8
CNC(=O)N(C)c1nnc(C(C)(C)C)s1	i
CC(C)C(=O)NC(c1ccco1)c1ccc2cccnc2c1O (stereo unspecified)	i
O=C(CN1C(=O)c2ccccc2S1(=O)=O)Nc1ccc(S(=O)(=O)N2CCCC2)cc1	0.1
CC1CCCCC1NC(=O)COn1nnc2ccc(Cl)cc21 (stereo unspecified)	i
O=C(Oc1ccccc1)c1cccc2cccnc12	0.0
O=C(O)CNC(=O)C1COc2ccccc2O1 (stereo unspecified)	0.4
O=C(Nc1nnc(CC(=O)N2CCOCC2)s1)C1COc2ccccc2O1 (stereo unspecified)	i
Cc1ccc(C(C(=O)NC2CCCCC2)N(CC2CCCO2)C(=O)CNC(=O)c2ccco2)cc1 (stereo unspecified)	0.3
CC(=O)N1CCc2cc(S(=O)(=O)NCCC(=O)Nc3ccc4c(c3)OCCO4)ccc21	i
Fc1ccccc1Cn1nnc(-c2ccc3c(c2)OCO3)n1	0.5
COC(=O)Nc1sc2c(c1C(=O)NC1CC1)CCCCCC2	1.4
CC(C)=C1C2CCC1C1C(=O)N(c3nc(-c4ccc(F)cc4)c(C)s3)C(=O)C21 (stereo unspecified)	0.2
CCn1c(=S)ccc2ccc(OC)cc21	0.6
CC(NC(=O)c1cccc(Cn2cc([N+](=O)[O-])cn2)c1)c1ccc(C(C)(C)C)cc1 (stereo unspecified)	0.5
Cc1cc(C(=O)CSc2nnc(-c3cccs3)o2)c(C)n1-c1ccccc1	0.1
O=C(Cn1cnc2c(cnn2-c2ccc(Cl)cc2)c1=O)NCCc1ccccc1	i
Cc1cc(C)cc(N2CC34C=CC(O3)C(C(=O)OCC(=O)NCc3ccco3)C4C2=O)c1 (stereo unspecified)	0.9
Cc1cc2c(s1)c1cnn(CC(=O)NCCc3ccccc3)c(=O)c1n2C	0.1
COc1ccccc1-c1ccc(C(=O)O)o1	i
COC(=O)CN1C(c2ccccc2)=Nc2ccc(Cl)cc2C1c1ccccc1 (stereo unspecified)	i
COC(=O)CSc1nnc(C)n1-c1cccc(OC)c1	i
Cc1cc(C)cc(NCc2cc3c(cc2[N+](=O)[O-])OCO3)c1	0.2
CCOc1cc(NS(=O)(=O)c2ccc(Cl)cc2)c(OCC)cc1NC(=O)CC(C)C	1.1
CCCCOCCCn1c(N)c(C(=O)OCCOC)c2nc3ccccc3nc21	i
O=C1CNC(=O)/C1=C\N1CCCCC1	i
COCc1cc(=O)[nH]c(/N=C(\N)Nc2ccc(Oc3ccccc3)cc2)n1	i
O=C(NNS(=O)(=O)c1cc(Cl)cc(Cl)c1)c1sccc1-n1cccc1	i
O=C(CSc1nc2ccccc2o1)Nc1ccc(Cl)cc1	0.2
Cc1ccc(S(=O)(=O)N(C)CCCC(=O)Nc2ccncc2)cc1	0.7
CC1CC(=O)C2=C(C1)Nc1ncnn1C2c1ccccc1 (stereo unspecified)	0.2
Cc1cc(C(=O)Nc2c(F)cc(F)cc2Br)c(C)o1	0.1
NC(=S)N/N=C/c1ccccc1OCc1cccc(Cl)c1	i
COC(=O)C1=C(C)NC(=O)CC1c1ccc(C(=O)OC)cc1 (stereo unspecified)	1.0
O=C(O)c1cn(-c2ccc(F)c(F)c2)c2c(F)c(F)c(F)c(F)c2c1=O	1.0
CC(=O)N1CCc2cc(NC(=O)c3ccc(C)cc3)ccc21	1.7
Cc1nc(CC(=O)O)c(-c2ccccc2)s1	1.0
Cc1ccc(C2CC(c3ccccc3OC(F)F)Nc3ncnn32)cc1 (stereo unspecified)	0.2

More compounds.
SMILES	H5N1 antiviral
CCOC(=O)C1=C(C)Nc2nc3ccccc3n2C1c1ccccc1 (stereo unspecified)	0.5
O=C(N/N=C\c1cn(-c2ccccc2)nc1-c1ccccc1)c1ccc2c(c1)OCO2	0.5
Cc1n[nH]c(C)c1CCc1nc2c3ccccc3nc(SCC(N)=O)n2n1	i
Cn1c(=O)c2c(nc(N3CCN(c4ccccn4)CC3)n2Cc2ccc(Cl)cc2Cl)n(C)c1=O	i
Cc1nc(SCC(=O)c2ccccc2)n[nH]1	0.2
Cc1cccc(/C=C2\CS/C(=C\c3cccc(C)c3)C2=O)c1	i
Cc1nn(-c2ccccc2)c(C)c1NC(=O)c1cccs1	0.6
COc1ccccc1CNC(=O)CSc1nc(-c2ccccc2)cn1N	0.6
CC(C)C(=O)NC(c1ccc([N+](=O)[O-])cc1)c1c(O)ccc2ccccc12 (stereo unspecified)	1.7
CC(=O)c1cccc(NC(=O)NCc2ccco2)c1	4.4
COC(=O)c1oc2ccc(Br)cc2c1NC(C)=O	0.9
Cc1ccc(/C=C/C2=NN(Cc3ccc(Cl)c(Cl)c3)C(=O)CC2)cc1	i
O=C(NCCNC(=O)c1ccc(Br)o1)c1ccc(Br)o1	2.6
COc1cc(C2NC(=O)NC(O)(C(F)(F)F)C2C(=O)c2cccs2)ccc1O (stereo unspecified)	0.1
COc1ccccc1NC(=O)C1=C(C)Nc2nc(-c3ccc(N(C)C)cc3)nn2C1c1ccncc1 (stereo unspecified)	0.3
O=C1C2CC=C(Cl)CC2C(=O)N1CCC[n+]1ccccc1 (stereo unspecified)	0.0
Cc1ccc(C)c(S(=O)(=O)N2CCN(CC(=O)NC(=O)NCc3ccccc3)CC2)c1	1.1
CCn1cc(C(=O)NCCCN2CCC(C)CC2)c(=O)c2cc(S(=O)(=O)N3CCCC3)ccc21	0.2
O=C1c2ccccc2C(Nc2cccnc2)N1Cc1ccc2c(c1)OCO2 (stereo unspecified)	i
O=C(NCc1ccc2c(c1)OCO2)C1CC(=O)N(C2CCCC2)C1 (stereo unspecified)	i
O=C(c1ccco1)N1CCN(c2ncnc3scc(-c4cccs4)c23)CC1	5.2
Cc1ccc(C(=O)NCCNS(=O)(=O)c2ccccc2)cc1	0.2
CCCNC(=O)N[C@@H](Cc1ccccc1)C(=O)OC	i
COCCn1c(CNc2ccc(F)cc2)nnc1SCC(=O)Nc1ccc(OC)cc1OC	1.2
O=C(NCCc1ccccc1)c1ccc(=O)[nH]c1	0.9
CC(C)c1ccc(C2NC(=O)NC3=C2CCc2ccccc23)cc1 (stereo unspecified)	5.4
Cc1ccc(C2C(C#N)=C(N)Oc3c2c(=O)n(C)c(=O)n3C)cc1 (stereo unspecified)	i
CC(C)(C)OC(=O)N1CCCC1C(=O)N1CCCC1C(=O)N1CCCC1C(=O)O (stereo unspecified)	i
O=C1Nc2ccccc2/C1=N\N=C\C1=C(N2CCOCC2)C(=C\c2ccccc2)/CC1	i
O=C(/C=C/NNC(=O)c1cccc(Br)c1)c1ccccc1	0.1
O=C(Nc1ccc2c3c(cccc13)CC2)c1ccc(Br)o1	i
O=C(COC(=O)c1ccccc1C(=O)N1CCN(c2ccccc2)CC1)Nc1ccc(F)cc1	i
Clc1ccc(-c2noc(CN3CCN(c4ccccc4)CC3)n2)cc1	i
CC(NC(=O)c1ccco1)C(c1cccs1)N1CCN(c2ccccc2)CC1 (stereo unspecified)	i
COc1ccccc1-c1nnc2sc(C3CCCCC3)nn12	0.7
O=C(c1ccc2c(=O)n(Cc3ccc4c(c3)OCO4)c(=S)[nH]c2c1)N1CCC2(CC1)OCCO2	2.7
Cc1ccc(Cl)cc1N1CCN(C(=O)C2(S(=O)(=O)c3ccc(Cl)cc3)CC2)CC1	3.6
CCOC(=O)C1=C(N)OC2=C(C(=O)CC(C)(C)C2)C1C1CCCCC1 (stereo unspecified)	0.6
CN1CCN(S(=O)(=O)c2ccc(NC(=S)NC(=O)c3ccc(Cl)cc3)cc2)CC1	i
O=C(NCCN1CCOCC1)c1cc(-c2ccc(F)cc2)on1	i
CC(=O)Nc1ccc(S(=O)(=O)N(C)c2ccccc2)cc1	0.2
CCN(CC)CCn1c(NCc2ccc(OC)cc2)nc2ccccc21	0.2
C[C@@H](C(=O)Nc1nc(-c2ccccn2)cs1)N1C(=O)C2CCCCC2C1=O (stereo partly specified)	6.8
CN(CCOc1ccccc1)c1ccc(S(=O)(=O)N2CCCCC2)cn1	1.1
Cc1c(NC(=O)CSc2nnc3sc4ccccc4n23)c(=O)n(-c2ccccc2)n1C	2.8
CCOc1ccccc1N1CCN(S(=O)(=O)CC)CC1	i
CS(=O)(=O)c1cccc(C(=O)NC(c2ccccc2)c2ccccc2)c1	0.6
COCCn1c(SCC(=O)N2CCCC2)nnc1C(C)C	1.9
Cn1c(=O)n(C)c(=O)n(CC(=O)N2CCCCC2)c1=O	i
COc1ccc(-n2cnc3cc(NCc4ccccn4)ccc32)cc1	0.7
Cc1ccc2cc(C#N)c(N3CCCN(C(=O)C4CCCO4)CC3)nc2c1 (stereo unspecified)	1.4
CCc1nn(CC(=O)O)c(=O)c2ccccc12	i
OC1CCN(c2ncnc3c2nnn3Cc2c(F)cccc2Cl)CC1	i
Clc1cccc(-c2nnc(SC/C=C/c3ccccc3)n2Cc2ccco2)c1	0.7
c1ccc(-c2nnc3sc(-c4csc5c4CCCC5)nn23)cc1	7.0
O=C(CN1CCCCC1)NCC(=O)Nc1ccc(Br)cc1C(=O)c1ccccc1	2.8
O=S(=O)(c1ccc(N2CCOCC2)cc1)N1CCOCC1	1.5
COc1cccc2cc(C(=O)N3CCN(C45CC6CC(CC(C6)C4)C5)CC3)c(=O)oc12	1.9
O=C1CC(c2ccccc2)CC(O)=C1C=NCCCO (stereo unspecified)	1.1
COc1cc(C2Nc3ccc4ncccc4c3C3=C2C(=O)CCC3)ccc1O (stereo unspecified)	0.3

Next section:
SMILES	H5N1 antiviral
CCCn1c(=O)c2ccccc2n2c(SCC(=O)c3ccccc3)nnc12	1.8
O=C(NCCNC(=O)c1cccs1)c1ccco1	0.8
CCC(C)N1C(=O)C2C(C(=O)Nc3cccc(OC)c3)C3C=CC2(O3)C1C(=O)NC1CCCCC1C (stereo unspecified)	i
CC(=O)N1CCCc2cc(S(=O)(=O)NC(C(=O)NC(C)c3ccccc3)C(C)C)ccc21 (stereo unspecified)	0.7
O=C(Oc1ccc(-c2nc(-c3ccccn3)no2)cc1)c1ccccc1	i
Nc1nc(-c2cccs2)c(NC(=O)c2ccccc2)s1	i
Cc1ccc2oc3c(c(=O)c2c1)C(c1cccc(Br)c1)N(Cc1ccco1)C3=O (stereo unspecified)	i
CNC(=O)c1sccc1SCc1ccc(Cl)cc1Cl	1.2
Cc1occc1C(=O)NCc1ccc(C(=O)O)o1	0.8
O=C(CCc1ccccc1)NNC(=O)COc1ccccc1	i
Fc1ccc(CNc2cnccn2)cc1	i

Structures shown so far containing fluorine, in the order listed:
SMILES	H5N1 antiviral
O=C(NCc1ccc(F)cc1)c1noc2c1CCCCC2	1.6
CCc1ccccc1NC(=O)Cn1nc(C(F)(F)F)cc1C1CC1	i
O=C(COc1ccccc1)Nc1cc(C(F)(F)F)ccc1N1CCCC1	0.1
CN1CCc2c(c3c(n2C)CCN(C)C3c2ccc(F)cc2)C1c1ccc(F)cc1 (stereo unspecified)	1.8
Fc1ccccc1Cn1nnc(-c2ccc3c(c2)OCO3)n1	0.5
CC(C)=C1C2CCC1C1C(=O)N(c3nc(-c4ccc(F)cc4)c(C)s3)C(=O)C21 (stereo unspecified)	0.2
Cc1cc(C(=O)Nc2c(F)cc(F)cc2Br)c(C)o1	0.1
O=C(O)c1cn(-c2ccc(F)c(F)c2)c2c(F)c(F)c(F)c(F)c2c1=O	1.0
Cc1ccc(C2CC(c3ccccc3OC(F)F)Nc3ncnn32)cc1 (stereo unspecified)	0.2
COc1cc(C2NC(=O)NC(O)(C(F)(F)F)C2C(=O)c2cccs2)ccc1O (stereo unspecified)	0.1
COCCn1c(CNc2ccc(F)cc2)nnc1SCC(=O)Nc1ccc(OC)cc1OC	1.2
O=C(COC(=O)c1ccccc1C(=O)N1CCN(c2ccccc2)CC1)Nc1ccc(F)cc1	i
O=C(NCCN1CCOCC1)c1cc(-c2ccc(F)cc2)on1	i
OC1CCN(c2ncnc3c2nnn3Cc2c(F)cccc2Cl)CC1	i
Fc1ccc(CNc2cnccn2)cc1	i

Source: PubChem BioAssay (SRMLSC)
